High-throughput results deposited in PubChem BioAssay by National Center for Advancing Translational Sciences (NCATS).
PINK1 expr mod: changes PINK1 expression; PINK1 immunofluorescence, high-content cytometry, 24 h; Potency, µM (doses to about 76.6 µM), for inactives: at the top dose activation (PINK1 increase), usual class: activators; 410,000 compounds, 0.2% hits; active = well fitted activation curve with a large enough effect; inconclusive = small, poorly fitted or top-dose-only effect; inactive = flat fitted curve, though single readings scatter; cell line not stated here;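 note: potency is the fitted concentration of half-maximal effect; % of control where 0% means no effect; nearly all actives have a fitted effect of over 65% in size; a mitochondrial uncoupler was the plate control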
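Fluorescence from anti-PINK1 antibody, together with nuclear and cell stains, was scanned on a laser-scanning cytometer. Before staining, stable-line cells were incubated 24 hours with compounds at 5 concentrations; primary antibody 12 h at 10 degrees C.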
Six1-Eya2 inh: blocks human Six1 binding to Eya2. Q15475+O00167. AlphaScreen GST-Six1/His-Eya2 binding, biochemical; hits give low values; control for the full effect not named in the record. activity change, % (concentration not given with the values). 360,000 compounds, 0.56% hits; in the data active = activity change below about -65%; inconclusive = about -30% to -65%; inactive = above about -30%; note: % is set by controls: 0 for no effect and ±100 for the full control effect
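GST-Six1 + His-Eya2 (5X stock: 250/500 nM); Tris pH 8.0, 300 mM NaCl, 0.05% BSA, 0.02% Tween 20; GSH donor/Ni acceptor beads; 1 h 37 °C dark; AlphaScreen readout.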
CtBP-E1A inh: CtBP/E1A binding inhibition. AlphaScreen GST-E1A/His-CtBP binding, 1536-well; hits give low values; control for the full effect not named in the record. activity change, % (test concentration not listed). 340,000 compounds, 0.49% hits; in the data active means activity change below about -65%; inconclusive means about -30% to -65%; inactive means above about -30%; note: % is set by controls: 0 for no effect and ±100 for the full control effect
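GST-E1A and His-tagged CtBP (125 nM each as 5X stock) were preincubated with pin-transferred compound for 2 h at 37 °C in the dark, then glutathione donor and nickel acceptor beads were added for 1 h before AlphaScreen reading.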
D2 agonist: human D2 receptor agonism in beta-arrestin assay. DiscoveRx PathHunter D2 beta-arrestin, luminescence, 90 min; 100% = 57 uM dopamine signal. activation, % (concentration not given with the values). 360,000 compounds, 0.084% hits; in the data active = activation above about 40%; inconclusive = about 15% to 40%; inactive = below about 15%; note: the text of the record calls up to 30% inactive
Target sequence (P14416 whole entry, looked up): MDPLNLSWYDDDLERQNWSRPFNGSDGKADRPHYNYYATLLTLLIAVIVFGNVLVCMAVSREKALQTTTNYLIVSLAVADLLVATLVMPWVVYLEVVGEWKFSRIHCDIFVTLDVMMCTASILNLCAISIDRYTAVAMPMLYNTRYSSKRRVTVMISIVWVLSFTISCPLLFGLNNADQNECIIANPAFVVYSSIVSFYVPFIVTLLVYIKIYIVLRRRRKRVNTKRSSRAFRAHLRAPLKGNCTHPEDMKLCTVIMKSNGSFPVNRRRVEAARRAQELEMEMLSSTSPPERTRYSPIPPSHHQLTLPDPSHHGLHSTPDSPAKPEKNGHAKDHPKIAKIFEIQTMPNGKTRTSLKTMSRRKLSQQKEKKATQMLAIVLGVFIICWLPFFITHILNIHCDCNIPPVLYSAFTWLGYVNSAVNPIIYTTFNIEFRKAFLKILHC
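Agonist mode: compounds alone added to overnight-plated D2 PathHunter cells for 90 min at 37 C, with 57 uM final dopamine (EC100) defining full response. Beta-arrestin recruitment detected by chemiluminescent reagent, read after 1 h at ambient temperature.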
TRPML1 blocker: blocks the human TRPML1 channel; TRPML1-inducible cells, Ca2+ dye fluorescence, FDSS; hits give low values; inhibition of EC80 agonist-evoked calcium signal; 390,000 compounds, 0.02% hits; activity change, negative = inhibition, % (no concentration beside the values); in the data active means activity change below about -50%; inconclusive means about -30% to -50%; inactive means above about -30%;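 note: stimulus is agonist 54-4 at its EC80 concentration; % is set by controls: 0 for no effect and ±100 for the full control effect; compound concentration not given in the record; the text of the record puts the active cut at -80%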
Target sequence (Q9GZU1 whole entry, looked up): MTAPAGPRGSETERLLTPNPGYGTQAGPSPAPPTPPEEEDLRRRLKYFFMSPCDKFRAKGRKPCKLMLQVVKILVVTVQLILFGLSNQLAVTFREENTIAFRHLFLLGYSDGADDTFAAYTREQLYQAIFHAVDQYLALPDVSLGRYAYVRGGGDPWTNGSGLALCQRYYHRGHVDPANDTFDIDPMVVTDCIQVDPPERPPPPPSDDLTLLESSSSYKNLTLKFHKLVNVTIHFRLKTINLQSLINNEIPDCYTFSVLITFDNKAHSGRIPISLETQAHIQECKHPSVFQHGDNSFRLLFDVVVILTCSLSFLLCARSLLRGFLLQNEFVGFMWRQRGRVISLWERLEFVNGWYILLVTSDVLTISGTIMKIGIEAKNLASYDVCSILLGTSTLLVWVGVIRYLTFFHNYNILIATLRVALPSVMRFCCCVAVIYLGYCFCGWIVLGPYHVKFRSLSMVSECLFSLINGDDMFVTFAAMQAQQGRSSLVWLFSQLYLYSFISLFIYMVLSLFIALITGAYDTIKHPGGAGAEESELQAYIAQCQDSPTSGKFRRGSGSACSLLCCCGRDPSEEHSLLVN
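TRPML1-DL cells, Tet-induced overnight (~16 h, 37 °C) at 1,500 cells/well, were loaded with Ca8 no-wash dye plus quencher for 45-90 min at room temperature. Compounds were pinned during FDSS kinetic reading; agonist 54-4 at EC80 (4 uM final) then added.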
TRPML1 agonist: activates the human TRPML1 channel. Q9GZU1. TRPML1-expressing cells, Ca2+ dye fluorescence, FDSS; host cell line not named in the record; reference of the full effect not given here. activation, % (concentration not given with the values). AID 624414. 410,000 compounds, 0.12% hits; in the data active = activation above about 50%; inconclusive = about 30% to 50%; inactive = below about 30%; note: 0% is about no effect; the text of the record puts the active cut at 80%
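Tetracycline-induced TRPML1-DL cells are seeded and incubated overnight before loading with a no-wash Ca2+ dye and quencher. Agonist activity is taken from the 110 s fluorescence read following compound pin-transfer on an FDSS, before EC80 54-4 challenge.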
* hit, by the source's call; ? = inconclusive; nt = no result given; [ ] = remark or other dose.

SMILES	PINK1 expr mod	Six1-Eya2 inh	CtBP-E1A inh	D2 agonist	TRPML1 blocker	TRPML1 agonist
CCOc1ccc(OCC)c(NC(=O)CCC(=O)N2CCOc3ccccc32)c1	0.8%	nt	nt	nt	-26	2.4
Cc1occc1C(=O)N(Cc1nc(-c2ccccc2)no1)C(C)C	-0.4%	-6	nt	-3.1	-15	0.1
O=C(O)c1ccccc1-c1ccccc1C(=O)Nc1ccc2c(c1)oc(=O)c1ccccc12	0.9%	-21	-11	-11	-3	-0.4
CC1CCN(C(=O)COC(=O)CCc2c[nH]c3ccccc23)CC1	-0.8%	1	nt	-0.2	22	2.8
Cc1ccc(Nc2nc(NCc3ccccc3)nc3ccsc23)c(C)c1	28%	1	-26	-6.0	nt	23
COc1ccc(OCc2cc(C(=O)N3CCN(CC(=O)N(C)C)CC3)no2)c(Cl)c1	0.2%	6	-4	3.6	43	0.3
Cc1ccc(CC2S/C(=N/c3ccccn3)NC2=O)cc1 (stereo unspecified)	5.7%	4	0	1.5	3	-0.7
Cc1noc(C)c1C(=O)N1CCCc2ccccc21	2.5%	0	2	-2.6	-9	-0.7
O=C(NCc1ccccc1)C1CCCN(S(=O)(=O)c2ccc(Br)cc2)C1 (stereo unspecified)	-0.2%	5	-3	-2.8	-3	-0.5
CCOC(=O)c1ccc(N2C(=O)C=CC2=O)cc1	-1.9%	-1	6	-2.9	16	-0.7
C=C1C(C(=O)Nc2ccc(F)cc2)C1C(=O)Nc1ccc(F)cc1 (stereo unspecified)	-0.4%	9	nt	0.7	19	0.3
C[C@@H]1CNC(=O)c2c(C(=O)Nc3cccc(Cl)c3)ncn21	-0.1%	-11	-12	-3.7	-7	-0.6
O=C(CNc1cc(S(=O)(=O)N2CCOCC2)ccc1N1CCCC1)Nc1ccc(Cl)cc1F	1.8%	-21	-8	-3.9	-3	0.0
COc1ccc(B(O)O)c(CN2CCN(C(=O)OC(C)(C)C)CC2)c1	-0.8%	7	-5	-4.0	-7	0.1
Cc1cn2c(=O)cc(COc3ccc(NC(=O)c4ccccc4C)cc3)nc2s1	?	nt	nt	nt	-15	0.1
COc1ccc(CNC(=O)COC(=O)c2ccc3ncsc3c2)cc1OC	1.5%	-3	-5	5.9	30	2.0
CCCCOc1ccc(C(=O)NCCc2sc(-c3ccc(OC)c(OC)c3)nc2C)cc1	2.0%	nt	nt	nt	-13	2.9
Cc1cccc(-n2c(C)cc(C=C(C#N)C#N)c2C)c1	20%	-4	-7	-3.1	-2	0.4
O=C(COC(=O)c1ccc(O)cc1)NC(=O)NCc1ccccc1	2.3%	3	-2	-4.6	22	1.3
CCc1cc(-c2cnnn2Cc2ccc3ccccc3c2)ccc1-c1cn(CC(C)C)nn1	2.7%	0	-1	-8.3	1	0.3
Cn1cc(CCNCc2cn[nH]c2-c2ccc(-c3ccccc3)cc2)cn1	6.1%	1	0	-1.6	1	1.0
CC(NC(=O)Cc1ccc(F)cc1)C(c1cccs1)N1CCN(C)CC1 (stereo unspecified)	-0.4%[38.3 µM]	2	-4	-0.8	25	0.7
Nc1nc(NCCOCCO)nc(NCc2ccccc2)c1[N+](=O)[O-]	3.4%	-3	1	0.3	-5	-0.7
C=CCC[C@H](Cc1ccc(F)cc1)C(=O)OC[C@H](Cc1c[nH]c2ccccc12)NC(=O)[C@H](CC=C)CC(=O)NCCO	8.8%	-9	-14	3.4	11	1.1
COc1ccc(-c2cc(=Nc3c(C)n(C)n(-c4ccccc4)c3=O)c3ccccc3o2)cc1	-1.2%	3	-9	-2.3	27	0.2

Three compounds out of the list, sorted by count of non-hydrogen atoms, high to low.
SMILES	PINK1 expr mod	Six1-Eya2 inh	CtBP-E1A inh	D2 agonist	TRPML1 blocker	TRPML1 agonist
CCOc1ccc(OCC)c(NC(=O)CCC(=O)N2CCOc3ccccc32)c1	0.8%	nt	nt	nt	-26	2.4
COc1ccc(CNC(=O)COC(=O)c2ccc3ncsc3c2)cc1OC	1.5%	-3	-5	5.9	30	2.0
Cc1noc(C)c1C(=O)N1CCCc2ccccc21	2.5%	0	2	-2.6	-9	-0.7

The listing continues:
SMILES	PINK1 expr mod	Six1-Eya2 inh	CtBP-E1A inh	D2 agonist	TRPML1 blocker	TRPML1 agonist
CC1CCN(c2cc(N)c(Cl)cc2[N+](=O)[O-])CC1	1.5%	-8	-3	-6.3	-7	-1.3
O=C(NCc1cccnc1)c1ccc(COc2ccc(Cl)cc2Cl)o1	-0.2%	2	9	-2.6	16	0.0
COc1cc(OC)c(OC)cc1/C=N/n1c(-c2n[nH]c3c2CCC3)n[nH]c1=S	-0.4%	-4	-4	-3.6	8	4.4
CC(C)NC(=O)C1Cc2c(-c3ccc4c(c3)OCO4)ccnc2O1 (stereo unspecified)	3.3%	8	2	-2.5	nt	-0.8
COc1cccc(OC)c1C(=O)NC(C)C12CC3CC(CC(C3)C1)C2 (stereo unspecified)	-1.3%	3	2	-3.6	3	2.0
CCN(CC)S(=O)(=O)c1ccc2c(c1)c(=O)c(C(=O)NCc1ccco1)cn2C	1.4%	-2	nt	-3.6	-5	1.0
COc1ccc(OC)c(NC(=O)c2cc(-c3cc(C)c(C)cc3O)n[nH]2)c1	19%	2	-2	-1.4	4	-0.7
C[C@@H]1CN([C@@H](C)CO)C(=O)CCCn2nncc2CO[C@H]1CN(C)C(=O)Nc1ccc(F)cc1	-2.8%	24	-6	-4.5	16	-0.4
COc1cc2sc(-c3ccc(S(C)(=O)=O)cc3)c(C(=O)NCCCCO)c2cc1OC	-0.8%	0	5	2.1	-6	-0.7
O=C(CN1C(=O)c2ccccc2S1(=O)=O)NCc1ccco1	-0.9%	1	1	-2.0	1	1.7
CCCC(=O)NNC(=O)CCC(=O)NCc1ccccc1	-1.1%[38.3 µM]	5	6	-1.3	9	0.8
c1ccc(CCNc2nc3ccccc3n3nnnc23)cc1	?	-1	5	0.7	10	-1.3
Cc1ccc(C(O)P(=O)(OC2CCCCC2)OC2CCCCC2)cc1 (stereo unspecified)	1.1%	0	2	2.7	-23	0.0
Cc1c(-c2nc(N)nc(Nc3ccccc3)n2)oc2ccccc12	-1.5%	-11	-2	-2.0	23	-0.4
COc1cc([C@H]2OC[C@H]3[C@@H]2CO[C@H]3c2ccc(O)c(OC)c2)ccc1O	-0.7%	0	8	-3.5	1	0.4
O=C(Nc1nnc(-c2cc(Cl)ccc2Cl)o1)c1ccc2c(c1)OCCO2	0.9%	nt	nt	nt	-4	-0.4
Cc1cc2oc(=O)cc(Cn3ccnc3)c2cc1C	-2.2%	9	-1	0.4	-19	-1.1
CCOc1ccccc1C(=S)NC1CCCCC1	0.1%	11	4	-2.9	-15	0.4
COc1ccc(CCNC(=O)C(CC(C)C)NC(N)=O)cc1 (stereo unspecified)	-0.4%	2	-13	0.6	23	1.1
O=C(c1ccc(Cl)cc1)c1oc2ccccc2c1CS(=O)c1ccccc1 (stereo unspecified)	-2.3%[38.3 µM]	-1	2	-4.4	44	1.7
COc1ccc2[nH]c(=O)c(C(c3nnnn3C(C)(C)C)N(Cc3ccco3)CC3CCCO3)cc2c1 (stereo unspecified)	2.0%[38.3 µM]	-2	8	0.6	-2	-0.2
CC(=O)Nc1ccc(S(=O)(=O)NC2(C(F)(F)F)C(=O)Nc3c2c(=O)[nH]c(=O)n3C)cc1 (stereo unspecified)	?	5	5	-3.7	-1	-0.4
O=C(c1ccc(Cl)cc1Cl)c1ncc(C(F)(F)F)cc1Cl	7.6%[38.3 µM]	2	8	-3.5	8	0.9
COc1ccccc1C(=O)NCCN1CCC(n2c(=O)[nH]c3ccccc32)CC1	-0.1%	0	-1	nt	nt	-0.6
COc1ccccc1C(=O)NCCC(=O)N1CCN(S(=O)(=O)c2ccccc2C(F)(F)F)CC1	2.5%	0	6	-0.8	-8	0.2

Complete entries, looked up by structure. Order of values: PINK1 expr mod, Six1-Eya2 inh, CtBP-E1A inh, D2 agonist, TRPML1 blocker, TRPML1 agonist
`COc1cccc(OC)c1C(=O)NC(C)C12CC3CC(CC(C3)C1)C2` (stereo unspecified) across the screens: -1.3%, 3, 2, -3.6, 3, 2.0
`O=C(CN1C(=O)c2ccccc2S1(=O)=O)NCc1ccco1` across the screens: -0.9%, 1, 1, -2.0, 1, 1.7

(list continues)
SMILES	PINK1 expr mod	Six1-Eya2 inh	CtBP-E1A inh	D2 agonist	TRPML1 blocker	TRPML1 agonist
Cc1ccc(NC(=S)Nc2ccc(OC(F)F)c(Cl)c2)cc1Cl	?	0	0	-1.3	-10	-0.3
O=C(CSC1=NCCN1)NC1CCCCCC1	1.3%	0	3	-5.2	15	-0.4
Cc1cccc(C(=O)NCC(=O)N2CCC2)c1	1.6%	8	-22	-4.2	-13	1.9
COc1cc2c(cc1OC)CN(C(=O)/C=C/c1cc(OC)c(OC)c(OC)c1)CC2	4.1%	-7	-3	4.7	0	-0.7
Oc1ccc(/C=N/NC(=S)Nc2cccnc2)c(O)c1	-2.4%	-90*	-82*	-2.4	9	-0.4
COc1ccc([C@H]2CC(=O)C=C(c3ccc4c(c3)OCCO4)C2)cc1	3.4%	-6	0	1.1	4	-0.1
O=C(COc1ccc(Cl)cc1)N/N=C/c1cccc2cccnc12	4.4%	?	?	-1.5	-1	0.9
O=C(c1ccccc1)N1N=C(c2ccccc2)CC1c1cccs1 (stereo unspecified)	-1.0%	-6	1	0.1	39	0.4
COCCNC(=O)C1(C)CCCN(C(=O)c2cccnc2SC)C1 (stereo unspecified)	0.4%	7	3	-6.0	27	0.0
CCN1CCN(C(=S)c2ccc(OC)cc2)CC1	-1.9%	10	3	-1.7	-21	0.4
COc1cc(/C=N\NC(=O)c2ccc(-c3ccccc3)cc2)cc(OC)c1OC(C)=O	-0.9%	-3	-10	5.9	-15	0.3
CC1(C(=O)NS(=O)(=O)C2CC2)CCN(C(=O)c2cccc(OC(F)(F)F)c2)C1 (stereo unspecified)	1.8%	8	5	-5.2	nt	-0.1
COc1ccc(/C=N/NC(=O)c2cc(C3CC3)[nH]n2)cc1OC	-0.5%	-1	-2	-1.1	-8	0.3
O=C(NCc1ccco1)c1ccc(CNc2c(N3CCCCC3)c(=O)c2=O)cc1	2.1%	-9	0	3.7	-4	0.2
O=C(C[C@H]1C/C=C\C[C@H](Cc2ccc(F)cc2)C(=O)O[C@@H](c2ccccc2)CNC1=O)N[C@H](CO)Cc1ccccc1	1.5%	6	nt	-1.8	3	0.0
CCOC(=O)c1c(NC(=O)COC(=O)CCCOc2ccc(OC)cc2)sc(C(=O)N(C)C)c1C	0.6%	-1	21	1.9	8	3.0
CCn1c(=O)c(C(=O)CN2CCN(S(=O)(=O)c3cc(C)ccc3C)CC2)c(N)n(Cc2ccccc2)c1=O	0.4%	19	0	-4.7	2	1.9
COc1ccc(S(=O)(=O)N2CCC(C(=O)NCc3ccc(C)cc3)CC2)cc1	-0.6%	-6	1	-4.0	-2	0.1
Cc1cccc(C(=O)O)c1NC(=O)Cc1cccc2ccccc12	0.6%	-13	-2	-4.6	-3	-0.5
COC(=O)c1scc(C)c1S(=O)(=O)Nc1ccc(C)cc1	4.2%	1	4	-2.2	76	0.8
CCc1ccccc1NC(=O)CSc1ncc(S(=O)(=O)c2ccccc2)c(N)n1	0.3%	nt	nt	nt	20	-1.4
O=C1CSc2ccc(C(=O)NCCc3ccc(Cl)cc3Cl)cc2N1	4.9%	-4	nt	-2.0	-5	-0.2
